HSD17B inh – HSD17B dehydrogenase inhibition. Q99714. Potency, µM (highest dose often 57.1 µM), for inactives: at the top dose activity change, negative = inhibition, most hits filed as inhibitors. recombinant HSD17B10, NADH fluorescence kinetic; many of its hits are not listed in these tables. 75,000 compounds, 7.6% hits; active means well fitted inhibition curve with a large enough effect; inconclusive means small, poorly fitted or top-dose-only effect; inactive means no such curve, though single readings can be large or run the other way;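 further: the protocol describes HADH2 (HSD17B10) and not the HSD17B4 of the title; nearly all actives have a fitted effect of over 70% in size; most hits overshoot -100% by far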
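His-tagged E. coli-expressed HADH2 at 20 nM in 100 mM Tris-HCl pH 9.0 with 0.01 % Tween-20, preincubated 15 min with compound at room temperature. Reaction with 1 mM NAD+ and 90 uM beta-hydroxybutyryl coenzyme A; NADH fluorescence (360/450 nm) read kinetically over 4 min, last minus first point.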
Active calls of the source: *; ? = inconclusive; [ ] = dose if it differs, or a comment. On the % scale 0 is the no-effect control and ±100 the full control effect; potency means the concentration at half of the fitted maximal effect. The list is partial. The share of hits here may be higher or lower than overall.

cpd	SMILES	HSD17B inh
1	C=C(C)CSc1nnc([C@@H]2CCCN2C(=O)OC(C)(C)C)o1	3%
2	Nc1c(C(=O)c2cccs2)oc2ccccc12	-5%
3	O=C(Nc1ccc(S(=O)(=O)Nc2cnc3ccccc3n2)cc1)c1ccc(Br)o1	?
4	CC(C)(C)c1csc(NC(=O)c2ccc(Cl)s2)n1	-27%
5	CCc1ccc(CCC(=O)O)nc1	-1%[11.4 µM]
6	Cc1cc(Cl)ccc1OC(C)C(=O)Nc1ccccc1N1CCOCC1 (stereo not drawn)	-2%
7	COCC(=O)N1CCC2(CC1)CN(c1ccccc1)C2	1%
8	CC(C)CC1N=C2c3ccccc3N=C(SCc3cc(=O)n4ccccc4n3)N2C1=O (stereo not drawn)	?
9	CCc1c(C)nc(N)nc1OCC(F)(F)C(F)F	3%
10	O=C(NCc1cccs1)Nc1cccs1	?
11	CCOC(=O)c1ccc(N2C(=O)CC(N3CCN(C/C=C/c4ccccc4)CC3)C2=O)cc1 (stereo not drawn)	4%
12	CN(C)S(=O)(=O)n1cnc2ccccc21	-10%
13	CCOC(=O)N1CCN(C(=O)C2CCN(S(=O)(=O)N3CCCC3)CC2)CC1	6%
14	COc1ccc(Oc2ncnc3c2ncn3Cc2ccccc2)cc1	3%
15	O=C(Nc1ccc2c(c1)nc1n2CCN(Cc2ccccc2)C1)c1cccs1	-25%
16	CCOC(=O)CC(=O)Nc1ccccc1C(=O)O	-1%
17	CCOc1cccc(/C(O)=C2/C(=O)C(=O)N(CCOC)C2c2ccncc2)c1 (stereo not drawn)	-12%
18	Nc1ccc(Cl)cc1[N+](=O)[O-]	-1%
19	CCN(CC)CCCN1C(=O)C(O)=C(C(=O)c2cccs2)C1c1ccccn1 (stereo not drawn)	-7%
20	CCNC(=O)Cc1ccc(NS(=O)(=O)c2ccc(F)cc2)cc1	10%
21	O=C(Cn1cnc2ccccc2c1=O)c1ccc2c(c1)OCCO2	-17%
22	CCOC(=O)c1c(C)c(-c2ccccc2)n(CC(=O)N2CCCC2)c1C	-4%
23	CCN(CC(=O)N1CCCCCC1)S(=O)(=O)c1ccc(Cl)cc1	-13%
24	CCCn1c(=O)c2c(c3ccccc31)OC(C)C(=O)N2 (stereo not drawn)	5%
25	O=C(O)Cn1cccc1C(=O)c1ccccc1	-4%
26	O=c1[nH]ncc2ccccc12	32µM*
27	CCOc1ccc(CCNc2nc3c(c(=O)n(C)c(=O)n3C)n2CC)cc1OCC	-14%
28	Cc1ccc(N2CC(C(=O)Nc3cccc(F)c3)CC2=O)cc1 (stereo not drawn)	6%
29	CC(=O)Nc1cc(C(=O)O)ccc1S(=O)(=O)c1ccc(Cl)cc1	-1%
30	COc1cccc(NC(=O)Cc2nnc(SCC(=O)c3ccccc3)n2C)c1	-6%
31	C=CCC1C=CC(Oc2ccc(OC)cc2)C(CO)O1 (stereo not drawn)	-6%[11.4 µM]
32	CN1CCN(S(=O)(=O)c2ccc3[nH]cc(C(=O)O)c(=O)c3c2)CC1	?
33	Cn1c(Cc2cccs2)nnc1SC/C=C/c1ccccc1	-7%
34	CCOC(=O)c1nnn(-c2nonc2N)c1-c1ccc(OC)cc1	14%
35	Cc1ccnc(SCCn2c(N3CCN(C)CC3)nc3c2c(=O)[nH]c(=O)n3C)n1	-2%
36	COc1ccc(N(C)S(=O)(=O)c2cccc3cccnc23)c(OC)c1	-6%

Grouped by structure: the entries above with fluorine (three)
cpd	SMILES	HSD17B inh
9	CCc1c(C)nc(N)nc1OCC(F)(F)C(F)F	3%
20	CCNC(=O)Cc1ccc(NS(=O)(=O)c2ccc(F)cc2)cc1	10%
28	Cc1ccc(N2CC(C(=O)Nc3cccc(F)c3)CC2=O)cc1 (stereo not drawn)	6%

Other entries:
cpd	SMILES	HSD17B inh
37	COc1ccc(N=CC2=C(O)CC(C)(C)CC2=O)cc1	-9%
38	N#CC1=C(N)OC(c2ccccc2)=C(C#N)C1c1ccc2c(c1)OCO2 (stereo not drawn)	25µM*
39	CCOc1cc(S(=O)(=O)n2nc(C)cc2C)ccc1F	4%
40	CCC(C)(C(=O)NC1CCCC1)N(Cc1cccs1)C(C)=O (stereo not drawn)	1%
41	Cn1c(=O)oc2cc(S(=O)(=O)NC3CCN(Cc4ccccc4)CC3)ccc21	1%
42	Cc1ccccc1-c1ccc(Nc2ccc(N3CCOCC3)cc2)nn1	4%
43	CCOC(=O)c1cc2sccc2n1CC(=O)N1c2ccccc2CC1C (stereo not drawn)	6%
44	CC(=O)c1ccc(OC(C)C)c(CSc2nc(O)cc(=O)[nH]2)c1	8%
45	COC(=O)C(C)Sc1nnc(SC(C)C(=O)OC)s1 (stereo not drawn)	2%
46	O=C(OCc1nnc(-c2ccc(Cl)cc2)o1)c1ccncc1	4%
47	CC(C)N1CC23C=CC(O2)C(C(=O)OCc2ccccc2)C3C1=O (stereo not drawn)	8%
48	Cc1ccc(C(=O)N(c2ccccn2)C(C)c2ccco2)cc1 (stereo not drawn)	-1%
49	COc1cc(SC)ccc1C(=O)OC1CCOC1=O (stereo not drawn)	-8%
50	O=C(COC(=O)C1CCCCC1)Nc1ccc(N2CCCCC2)cc1	2%
51	O=C(CSc1n[nH]c(-c2ccccc2)n1)c1ccc(O)c(O)c1	-17%
52	CCn1ncc(Br)c1C(=O)Nc1cc(C)ccc1F	7%
53	NS(=O)(=O)c1ccc(C(=O)O)cc1	7%[11.4 µM]
54	COc1cc(C(=O)N2CCC(c3nc(-c4cccnc4)no3)CC2)cc(OC)c1OC	5%
55	COc1ccccc1CN(C(=O)c1ccco1)C(C(=O)NC1CCCC1)c1ccncc1 (stereo not drawn)	-8%
56	CC(=O)Oc1cccc(N2C(=O)C3C4C=CC(C4)C3C2=O)c1 (stereo not drawn)	11%
57	O=C(Cn1cnc2c(nnn2Cc2ccccc2)c1=O)N1CCCc2ccccc21	23%
58	O=C(NCc1cccs1)C1CCCN1C(=O)Nc1ccccc1 (stereo not drawn)	3%
59	CCc1nc(NCCN2CCOCC2)c2oc3ccccc3c2n1	2%
60	Cc1cccc(NC(=O)Cn2c(C)c(C#N)c3ccccc32)c1C	-8%
61	N#Cc1c(NC(=O)CSc2nnc(-c3ccncc3)n2CC2CCCO2)sc2c1CCCC2 (stereo not drawn)	-5%
62	CC(=O)NC1C2CN3CCN(C2)CC1(Cc1ccccc1)C3 (stereo not drawn)	4%
63	CC(=O)N1C2CCCCC2S[C@H]2CCCCC21 (stereo partly drawn)	-10%
64	NC(=O)c1ccsc1NC(=O)COc1ccccc1	-30%
65	Cc1nc(NC2=NCN(Cc3cccnc3)CN2)nc2c(C)cccc12	1%
66	COc1ccc2[nH]cc(CCNc3ccnc(-c4ccc(C(=O)N(C)C)cc4)n3)c2c1	8%
67	CSc1nnc2c(n1)OC=Nc1ccccc1-2	-4%
68	CCO/C=N/c1c(C#N)c2c(c(=S)n1C)COC(C)(C)C2	?
69	O=C(Nc1ccc(F)cc1)C1CCCCC1	5%
70	COc1ccccc1NC(=O)c1ccc(N)cc1	0%
71	Clc1cccc2c1CN(C1=NCCN1)C2	-7%
72	Cc1cc(NS(=O)(=O)c2ccc(NC(=O)NC3CCCCC3)cc2)no1	10%
73	CCC(=O)Nc1ccc2nc(SCC(=O)N3CCCC3)sc2c1	?
74	CCOc1ccc(OCc2ccc(C(=O)N3CCCC3)o2)cc1	4%
75	COC(=O)Cn1ncn2c(cc3oc(C)cc32)c1=O	-12%
76	Cc1cc(C)n2cc(CSCc3ccco3)nc2n1	32µM*
77	COc1cccc(N2CCN(Cc3nc(N)nc(Nc4ccccc4)n3)CC2)c1	?
78	COc1ccc(-c2n[nH]c(C)c2-c2ccc(OC)c(OC)c2)c(O)c1	?
79	Nc1c(S(=O)(=O)c2cccc(Cl)c2)c2nc3ccccc3nc2n1/N=C/c1ccc(O)c(O)c1	?
80	Cn1nnnc1P(=O)(c1ccccc1)c1ccccc1	6%
81	C[C@H](Br)C(=O)c1ccc2cc(Br)c3ccccc3c2c1	-5%[11.4 µM]
82	Cc1cccc(-n2ncc3c(NCc4cccs4)ncnc32)c1	32µM*
83	O=C(c1cccs1)N1CCN(C(=O)c2ccco2)c2ccccc2C1	7%
84	CCOC(OCC)P(=O)(c1ccccc1)c1ccccc1	4%
85	CCCCCCS(=O)Cc1ccccc1 (stereo not drawn)	2%
86	COc1cc(NS(=O)(=O)c2ccc(F)cc2)c(OC)cc1NC(C)=O	-5%
87	N#CC1=C(N)Oc2c(ccc3cccnc23)C1c1cccnc1 (stereo not drawn)	?
88	Cc1cccc(C)c1NC(=O)C(c1ccccc1)N1CCN(C(=O)c2ccco2)CC1 (stereo not drawn)	3%
89	Cc1ccc(Cn2nnc3c(=O)n(CC(=O)OCc4ccccc4)cnc32)cc1	-4%
90	COc1ccccc1N1CCN(CCN(C(=O)C2CCCCC2)c2ccccn2)CC1	-9%
91	O=C(COc1ccc(S(=O)(=O)NC2CCCCC2)cc1)N1CCN(c2ccc(F)cc2)CC1	-4%
92	CCOC(=O)Cn1nnc(-c2cccc(OC)c2)n1	6%
93	CC(C)N(Cc1nc(-c2ccccc2)no1)C(=O)CN1C(=O)c2ccccc2C1=O	6%
94	CC(=O)C1=C(C)NC(SCC(=O)c2ccccc2)=C(C#N)C1CC(C)C (stereo not drawn)	?
95	CCCn1c(=O)c2[nH]c(-c3ccc(OCC(=O)NCCN)cc3)nc2n(CCC)c1=O	?
96	O=C(CN1CCN(c2ccccn2)CC1)NC(=O)NC1CCCCC1	6%

Remaining list, next part
cpd	SMILES	HSD17B inh
97	CCOCC(=O)Nc1cc(C(=O)OC)ccc1C(=O)OC	32µM*
98	O=C(O)CCc1nc(-c2cccs2)no1	-7%
99	O=c1c2ccccc2nc(COc2ccccc2)n1/N=C/c1ccco1	9%
100	CCCNC(=O)c1c(C)cc(=O)oc1C	-18%
101	FB(F)F	0%
102	CCC1CCCCN1C(=O)CSc1nnc(CNC(=O)COc2ccc(Cl)cc2)o1 (stereo not drawn)	5%
103	COc1cc(C2c3c(-c4ccccc4)n[nH]c3C(=O)N2c2ccccc2)ccc1O (stereo not drawn)	-3%
104	O=c1c(-c2ccccc2)c(O)nc2ccccn12	-24%
105	O=C1CC(c2cccs2)CC(O)=C1C=NCCN1CCNCC1 (stereo not drawn)	9%
106	Cc1nc(NCc2ccccc2)c2nc(-c3ccccc3)n(CCN(C)C)c2n1	32µM*
107	CCNC(=O)N1c2ccc(OCC)cc2C(C)=CC1(C)C	32µM*
108	O=C(Nc1ccc(OC(F)(F)F)cc1)C1=NCCN1	-5%

Excerpt: nos. 102 to 106
cpd	SMILES	HSD17B inh
102	CCC1CCCCN1C(=O)CSc1nnc(CNC(=O)COc2ccc(Cl)cc2)o1 (stereo not drawn)	5%
103	COc1cc(C2c3c(-c4ccccc4)n[nH]c3C(=O)N2c2ccccc2)ccc1O (stereo not drawn)	-3%
104	O=c1c(-c2ccccc2)c(O)nc2ccccn12	-24%
105	O=C1CC(c2cccs2)CC(O)=C1C=NCCN1CCNCC1 (stereo not drawn)	9%
106	Cc1nc(NCc2ccccc2)c2nc(-c3ccccc3)n(CCN(C)C)c2n1	32µM*

Additional compounds follow:
cpd	SMILES	HSD17B inh
109	Cc1cc(C)c(O)c(Cc2cccc(Cc3cc(C)cc(C)c3O)c2O)c1	8%[11.4 µM]
110	COc1cccc(CNc2nc3ccccc3n2CCN2CCCCC2)c1	2%
111	Cc1noc(C)c1-c1nccc(N2CCNCC2)n1	-2%
112	CCOc1ccccc1NC(=O)c1c(NC(=O)CNCc2ccco2)sc2c1CCC2	-14%
113	O=C(C1CCCCC1)N1CCC(c2nc3c(nnn3Cc3ccccc3Cl)c(=O)[nH]2)CC1	6%
114	Cc1ccc(NC(=O)C2CC=CCC2C(=O)N2CCCCC2)cc1 (stereo not drawn)	13%
115	COc1ccc(C(=O)CSc2nnc(-c3ccc(S(=O)(=O)N4CCOCC4)cc3)o2)cc1	-2%
116	Cc1ccc(CNC(=O)C2C3C=CC4(CN(Cc5cccnc5)C(=O)C24)O3)cc1 (stereo not drawn)	3%
117	Cc1cn2nc(N)c3ccccc3c2n1	25µM*
118	CN(C)Cc1ccccc1-c1cc(-n2ccnc2)ncn1	-5%
119	COc1ccccc1C(=O)Nc1ccc(-c2nnc(SCC(=O)O)n2C)cc1	6%
120	Cc1ccc(NC(=O)COC(=O)C2CCC(=O)N2)c(S(=O)(=O)N2CCOCC2)c1 (stereo not drawn)	5%
121	C=CCc1c(C)[nH]c2ccc(C)cc2c1=O	-22%
122	Cn1c(SCC(=O)Nc2cccc(O)c2)nnc1-c1ccc(S(=O)(=O)N2CCOCC2)cc1	2%
123	CCOC(=O)C1CCCN(C(=O)CSc2nccn2C)C1 (stereo not drawn)	10%
124	O=C(CSc1nnc(-c2cccnc2)n1Cc1ccccc1)N1CCOCC1	9%
125	CCC1(c2ccccc2)NC(=O)N(CC(=O)Nc2cccc(C#N)c2)C1=O (stereo not drawn)	2%
126	CN(C(=O)c1ccc(=O)[nH]c1)C1(C(=O)NC2CCCCC2)CCCCC1	-6%
127	CC(=O)OCCN1C(=O)c2cccnc2C1=O	-10%
128	CC(C)C(NS(=O)(=O)c1ccc2c(c1)oc(=O)n2C)C(=O)N1CCN(C2CCCCC2)CC1 (stereo not drawn)	3%
129	COc1ccc(OCC(=O)Nc2ccccc2OC)cc1	-1%
130	CCOn1c(=O)c(-c2ccc(OC)cc2)[n+]([O-])c2ccccc21	-5%
131	O=C(Nc1ccccc1)c1cccc(N2C(=O)CCC2=O)c1	-5%
132	O=C1CC(N2CCOCC2)C(=O)N1CCN1C(=O)CC(N2CCOCC2)C1=O (stereo not drawn)	19%
133	O=C1c2cccnc2-c2ncccc21	8%

Screening results deposited in PubChem BioAssay by National Center for Advancing Translational Sciences (NCATS).
